# GLA inh pH 4.5 = alpha-galactosidase A (human) inhibition, pH 4.5. 230,000 tested, under 10 active. AID 1467. purified enzyme, 4-MU-alpha-Gal fluorescence, pH 4.5. activity change, negative = inhibition, % at 105 µM. P06280; inconclusive = small, poorly fitted or top-dose-only inhibition, or a rising curve; inactive = flat fitted curve, though single readings scatter; no compound was filed as active;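 further: 0% = full activity with enzyme and -100% = basal without enzyme; dose as in the result columns while the protocol names 77 µM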
# Target sequence (P06280 whole entry, looked up): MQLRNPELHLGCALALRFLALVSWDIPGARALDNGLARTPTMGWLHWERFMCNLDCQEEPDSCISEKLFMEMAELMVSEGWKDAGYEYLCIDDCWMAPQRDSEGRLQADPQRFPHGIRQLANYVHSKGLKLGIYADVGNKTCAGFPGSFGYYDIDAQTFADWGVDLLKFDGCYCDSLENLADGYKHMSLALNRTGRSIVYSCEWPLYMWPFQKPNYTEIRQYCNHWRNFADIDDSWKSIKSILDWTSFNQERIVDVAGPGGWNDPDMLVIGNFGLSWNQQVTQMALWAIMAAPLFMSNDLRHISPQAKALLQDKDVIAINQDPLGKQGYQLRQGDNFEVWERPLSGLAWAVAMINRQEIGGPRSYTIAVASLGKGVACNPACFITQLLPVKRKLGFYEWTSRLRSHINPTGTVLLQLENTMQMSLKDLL
# Starred values were filed as active, the others as inactive; u = inconclusive; & = joins results of further samples. Not all compounds are listed; count on the stated rates, not on these rows.
SMILES,GLA inh pH 4.5
Nc1ncn([C@H]2O[C@@H](CO)[C@@H](O)[C@@H]2O)c(=O)n1,-2.0
COc1cc(OC)c2c(c1)OC(c1ccccc1)CC2=O (stereo not drawn),-16.0
CC(C)C[C@@H](CC(=O)N[C@H](CC(=O)N[C@@H]1CCCC[C@H]1C(=O)N[C@H](CC(=O)N[C@@H](CCC(=O)O)CC(=O)O)CC(C)C)C(C)C)NC(=O)[C@@H]1CCCC[C@H]1N,-3.4
O=C1OC(=O)C2C3CCC(O3)C12 (stereo not drawn),2.3&1.3&1.9
O=c1cc(CO)occ1O,-7.9
N[C@H](C(=O)O)c1ccc(O)c(C(=O)O)c1,0.7
O=c1c(O)c(-c2ccc(O)c(O)c2)oc2ccccc12,-2.1
COc1ccc2c(c1)C(=O)[C@@H](OC(=O)N[C@H](C)C1CCCCC1)[C@H](c1ccc(OC)c(Br)c1)O2,-4.5
COc1ccc(NC(=O)N2CCc3nc(COc4ccccc4)c4c(c3C2)CO[C@@H](C)C4)cc1,-3.7
COCCNc1cc(-c2ccccc2C(F)(F)F)ncn1,-4.4
NC(=O)N[C@H]1NC(=O)NC1=O,3.3
O=C/C=C/c1ccc(O)cc1,-15.3
COc1cc2oc(=O)cc(-c3ccc(-c4sccc4C=O)cc3)c2c(OC)c1OC,-5.7
CN=C1N[C@H](c2ccccc2)N(c2ccccc2)S1,-9.7
O=C1Nc2ccc(I)cc2/C1=C/c1cc(Br)c(O)c(Br)c1,-6.5&-18.4
CC(C)(C)c1ccc(S(=O)(=O)/C=C/C#N)cc1,1.3
CCCCCCCCCCCCCCCC(N)=O,-2.9
CCCCCCCCCCOCCC(=O)O,-7.4
CCCn1c(C)nc2c(NCc3ccccc3)nc(C)nc21,3.7
COc1cc2c(cc1OC)[C@@H]1C(=O)c3ccc4c(c3O[C@@H]1CO2)C=CC(C)(C)O4,-6.5
COC(=O)c1ccc(C(NC(=O)OCc2ccccc2)/C(=C/[C@@H](C)C(=O)NCc2cc(C)on2)c2cccnc2)cc1 (stereo partly drawn),-2.6
CCCCCCCC[C@@H](O)/C=C/C=C/C=C\[C@@H](O)CCCC(=O)O,-1.0
COC(=O)C1(C(=O)OC)C/C=C\C/C=C\c2ccccc2C1C[N+](=O)[O-] (stereo not drawn),0.3
Cc1nnc(SCC2=C(C(=O)O)N3C(=O)C(NC(=O)Cn4cnnn4)[C@@H]3SC2)s1 (stereo partly drawn),12.4
Cc1ccccc1[C@@H](OCCN(C)C)c1ccccc1,-17.4

# 14 compounds from above, ordered by length of the SMILES, ascending.
SMILES,GLA inh pH 4.5
O=c1cc(CO)occ1O,-7.9
O=C/C=C/c1ccc(O)cc1,-15.3
CCCCCCCCCCCCCCCC(N)=O,-2.9
NC(=O)N[C@H]1NC(=O)NC1=O,3.3
COCCNc1cc(-c2ccccc2C(F)(F)F)ncn1,-4.4
CN=C1N[C@H](c2ccccc2)N(c2ccccc2)S1,-9.7
CC(C)(C)c1ccc(S(=O)(=O)/C=C/C#N)cc1,1.3
O=c1c(O)c(-c2ccc(O)c(O)c2)oc2ccccc12,-2.1
O=C1Nc2ccc(I)cc2/C1=C/c1cc(Br)c(O)c(Br)c1,-6.5&-18.4
Nc1ncn([C@H]2O[C@@H](CO)[C@@H](O)[C@@H]2O)c(=O)n1,-2.0
Cc1nnc(SCC2=C(C(=O)O)N3C(=O)C(NC(=O)Cn4cnnn4)[C@@H]3SC2)s1 (stereo partly drawn),12.4
COc1ccc(NC(=O)N2CCc3nc(COc4ccccc4)c4c(c3C2)CO[C@@H](C)C4)cc1,-3.7
COc1cc2c(cc1OC)[C@@H]1C(=O)c3ccc4c(c3O[C@@H]1CO2)C=CC(C)(C)O4,-6.5
COc1ccc2c(c1)C(=O)[C@@H](OC(=O)N[C@H](C)C1CCCCC1)[C@H](c1ccc(OC)c(Br)c1)O2,-4.5

# Quoted at random: two records from the list
SMILES,GLA inh pH 4.5
COc1ccc2c(c1)C(=O)[C@@H](OC(=O)N[C@H](C)C1CCCCC1)[C@H](c1ccc(OC)c(Br)c1)O2,-4.5
COc1ccc(NC(=O)N2CCc3nc(COc4ccccc4)c4c(c3C2)CO[C@@H](C)C4)cc1,-3.7

# Next part
SMILES,GLA inh pH 4.5
COc1ccc2c(c1OC)C(Cc1ccccc1)N1CCc3cc4c(cc3C1C2)OCO4 (stereo not drawn),-9.9
COc1ccc(C(=O)OC2CC3CC[C@H](C2)N3C(C)=O)cc1OC (stereo partly drawn),-8.0
CO[C@@]1(NC(=O)CSCC#N)C(=O)N2C(C(=O)O)=C(CSc3nnnn3C)CSC21 (stereo partly drawn),-8.3
CCCCC/C=C\C/C=C\C/C=C\CCCCCCC(N)=O,-2.5
C[N+](C)(C)CC[N+]1(C)Cc2c(Cl)c(Cl)c(Cl)c(Cl)c2C1,-7.1
COC(=O)[C@@]1(Cc2ccccc2)[C@H]2c3cc(C(=O)N(C)C)n(Cc4nc5ccccc5[nH]4)c3C[C@H]2CN1C(=O)c1ccccc1,-2.7
CC(=O)OCC(=O)[C@@]1(O)CCC2C3CC(C)C4=CC(=O)C=CC4(C)C3C(O)CC21C (stereo partly drawn),-2.1
CN(CCc1ccc(Cl)c(Cl)c1)C[C@@H](O)COc1ccc(NS(C)(=O)=O)cc1,-5.6
O=c1cc(-c2ccc(F)cc2F)[nH]c2ccc(F)cc12,-3.1
CCCn1c(C)nc2c(NCCO)nc(C)nc21,-6.1
COc1cccc([C@@H]2Oc3ccc(Br)cc3C[C@H]2O)c1,-6.6
CC(=O)OC1CC2C(C)(C)C(=O)C3OC3[C@]2(C)C2CC[C@@]3(C)C(c4ccoc4)OC(=O)C4OC43[C@]12C (stereo partly drawn),-0.2
COCCNc1ncnc2ccc(-c3ccccc3CN(C)C)cc12,-5.1
Cc1ccc2c(c1)CC[C@H]1CC(=O)CC[C@@]21C,4.3
COC(=O)[C@@H]1C[C@@]2(O)[C@@H](O)[C@@H](O)[C@@H](O)C[C@H]2N1Cc1ccc(C(C)(C)C)cc1,-5.7
CCCC[C@@H]1C[C@H]1C(NC(=O)c1cccnc1)c1ccc(Cl)cc1 (stereo partly drawn),u
Cc1nc(NCc2ccccc2)c2nc(-c3ccccc3)n(CCCN3CCCCC3C)c2n1 (stereo not drawn),-16.3
COc1cccc(-c2cncnc2NCCc2cnc[nH]2)c1,7.7
CC(C)=CCn1cnc2c1c(=O)n(C)c(=O)n2C,0.4
COC(=O)[C@@]1(Cc2ccc(OC)cc2)[C@H]2c3cc(C(=O)N(C)C)n(Cc4ccc(C(F)(F)F)nc4)c3C[C@H]2CN1C(=O)c1ccccc1,-19.8
COc1ccc2[nH]cc(CCNc3cc(-c4ccccc4C(F)(F)F)ncn3)c2c1,-15.5
FC(F)(F)c1ccccc1-c1nc(N2CCNCC2)c2ccccc2n1,1.2
NC[C@](O)(CS(=O)(=O)O)c1ccc(Cl)cc1,0.8
O=C(Nc1ccc(C(=O)Nc2ccc(C(=O)Nc3ccc(S(=O)(=O)O)c4cc(S(=O)(=O)O)cc(S(=O)(=O)O)c34)cc2)cc1)Nc1ccc(C(=O)Nc2ccc(C(=O)Nc3ccc(S(=O)(=O)O)c4cc(S(=O)(=O)O)cc(S(=O)(=O)O)c34)cc2)cc1,25.2
Clc1cc(Cl)cc(C2=N[C@@H](Cc3ccccc3)CO2)c1,1.1

# Following part:
SMILES,GLA inh pH 4.5
OB(O)c1ccc(Br)cc1,-3.6
NCCC[C@@H](CC(=O)N[C@@H]1CCCC[C@H]1C(=O)N[C@H](CC(=O)N[C@@H](CCC(=O)O)CC(=O)O)Cc1c[nH]c2ccccc12)NC(=O)C[C@H](CO)NC(=O)[C@@H]1CNCC[C@H]1N,-1.8
COc1ccc2c(c1-c1c3c(cc(Br)c1OC)CCCC3)CCCC2,-0.7
COC(=O)[C@@]1(Cc2ccc(OC)cc2)[C@H]2c3cc(C(=O)N4CCCC4)n(Cc4ccc(O)c(OC)c4)c3C[C@H]2CN1C(=O)c1ccccc1,-9.6
Cc1cccc(CNc2ccnc(-c3ccoc3)n2)c1,-6.0
CCN(CCO)CCCC(C)Nc1ccnc2cc(Cl)ccc12 (stereo not drawn),-8.9&-2.9
CSc1ccc2c(c1)[C@H](N1CCN(C)CC1)Cc1ccccc1S2,-9.3&4.4
Nc1nc2c(nc(Br)n2C2CC(O)C(CO)O2)c(=O)[nH]1 (stereo not drawn),1.4
CC/C=C\C[C@H]1C(=O)CC[C@@H]1CC(=O)O,1.9
COc1ccc(-c2cc(=O)c3ccc(F)cc3[nH]2)cc1,-10.1
COc1ccc2c(c1)O[C@H](c1ccc3c(c1)OCO3)[C@@H](OC(=O)NC1CCCC1)C2=O,0.6
O=c1cc(-c2cccc(F)c2)[nH]c2cc(F)ccc12,-7.0
Cc1c(-c2ccc(Cl)cc2)noc1C1CCN(CCc2ccccc2)CC1,-4.3
COC(=O)c1c(OC)cc2c(c1C)Oc1c(Cl)c(O)c(Cl)c(C)c1C(=O)O2,0.6
C=C(N(C)C)[C@]1(C)C[C@H]1[C@H](NC(=O)CNC(=O)OCc1ccccc1)c1ccccc1,2.1
CN(C)c1ncnc2ccc(-c3ccccc3C#N)cc12,0.8
COc1ccc2c(c1)O[C@H](c1ccc3c(c1)OCO3)[C@@H](OC(=O)NCCc1ccc(OC)c(OC)c1)C2=O,-1.1
c1ncc(-c2ccc3c(c2)OCO3)c(NCCc2cnc[nH]2)n1,1.1
CNc1cc(OC)c(C(=O)N[C@@H]2CCN(Cc3ccccc3)[C@H]2C)cc1Cl,-14.2
CC[C@H]1CN2CCc3cc(OC)c(OC)cc3[C@H]2C[C@@H]1C[C@@H]1NCCc2cc(OC)c(OC)cc21,-5.8
NC1CCN(c2cccc(Cl)n2)CC1,0.1&-2.6
CCOC(=O)N/N=C/c1ccccc1-c1cc(OC)ccc1OC,-7.9
CC[N+](CC)(CC)CC[C@](O)(c1ccccc1)C1CCCCC1,-1.6
CNC(=O)[C@H]1O[C@@H](n2cnc3c(NCc4ccc(N)cc4)ncnc32)[C@H](O)[C@H]1O,-5.3
N[C@@H](CCCP(=O)(O)O)C(=O)O,-5.4

# Continuation.
SMILES,GLA inh pH 4.5
CC1(CN2CCC(n3c(=O)[nH]c4ccccc43)CC2)OCc2ccccc2-n2cccc21 (stereo not drawn),-8.7
O=C(O)Cc1cc2ccccc2nc1C(=O)O,-2.0
C=CC(C1=CC(=O)C(OC)=CC1=O)c1ccc(O)cc1 (stereo not drawn),5.3
CC(C)C(NC(=O)C(Cc1ccc(O)cc1)NC(=O)C(NC(=O)C(F)(F)F)C(C)C)C(=O)O (stereo not drawn),-0.5
COc1ccc(CNc2nc(-c3ccccc3OC)nc3ccccc23)c(OC)c1,0.5
Nc1ccc(C(=O)O)c(O)c1 (tested in a mixture with another compound),0.1
CC1(OC(=O)c2ccco2)C(=O)C=C2C=C(c3ccsc3)OC=C2C1=O (stereo not drawn),4.2
CNC(=O)[C@H](C)[C@H]1C[C@]1(C)[C@H](NC(=O)OCc1ccccc1)c1ccccc1,-2.8
CS(=O)(=O)Nc1cccc(-c2nc(N3CCNCC3)c3ccccc3n2)c1,-5.3
Cc1cc(O)c(C=O)c2c1C(=O)Oc1c(COC(=O)/C=C/C(=O)O)c(O)c(C(=O)O)c(C)c1O2,-1.8
COc1cc([C@@H]2c3cc4c(cc3C(OC3OC5COC(C)OC5C(O)C3O)C3COC(=O)[C@@H]32)OCO4)cc(OC)c1O (stereo partly drawn),3.5
CC(C)(C)OC(=O)NCCCC1=CC2=CC(=O)C(C)(O)C(=O)C2=CO1 (stereo not drawn),2.0
COC(=O)[C@@]1(Cc2ccc(OC)cc2)[C@H]2c3cc(C(=O)N4CCCC4)n(CCc4c[nH]c5cc(F)ccc45)c3C[C@H]2CN1C(=O)c1ccccc1,-13.0
CC(C)C[C@H]1C(=O)N2CCC[C@H]2[C@]2(O)O[C@](NC(=O)[C@@H]3C=C4c5cccc6[nH]c(Br)c(c56)C[C@H]4N(C)C3)(C(C)C)C(=O)N12,-9.5
CC1COc2ccccc2C1=O (stereo not drawn),-4.9
CCCCCCCCCCCCC/C=C/[C@@H](O)[C@H](CO)N(C)C,2.4
CCOC(=O)C1=NO[C@@]2(C=C(Br)C(=O)[C@H]3O[C@H]32)C1,-5.6
CCCCC/C=C\C/C=C\C/C=C\C=C\[C@@H](O)CCCC(=O)O,1.6
COc1ccccc1-c1cncnc1NCc1cccc(C)c1,-3.1
c1ccc2nc(C3=NCCN3)cnc2c1,-5.5
COC(=O)C1C2CC3c4[nH]c5cc(OC)ccc5c4CCN3CC2CC(OC(=O)c2cc(OC)c(OC)c(OC)c2)C1OC (stereo not drawn),-18.7
C[C@@H]1Oc2ccccc2C=C1/C=C/C(=O)O,-11.2
NCCCCC(NC(CCc1ccccc1)C(=O)O)C(=O)N1CCCC1C(=O)O (stereo not drawn),4.5
CC(C)(C)C(=O)OCC(=O)C1CCC2C3CCC4=CC(=O)CCC4(C)C3CCC12C (stereo not drawn),-5.5
CC(C)c1ccc(Cn2ccc3c4c(N)nc(NC5CC5)nc4ccc32)cc1,-9.5

# More results:
SMILES,GLA inh pH 4.5
COc1ccc2c(c1)C(c1cc(OC)c(OC)c(OC)c1)CC(=O)O2 (stereo not drawn),1.1
CC(CCC(=O)O)C1CCC2C3CC[C@H]4CC(O)CC[C@@]4(C)C3CC(O)[C@]12C (stereo partly drawn),-10.1
COc1cc(OC)cc(OC)c1,5.5
COC(=O)c1c(Cl)c(Cl)c(C(=O)OC)c(Cl)c1Cl,0.8
CC/C(=C(/c1ccccc1)c1ccc(OCCN(C)C)cc1)c1ccccc1,-12.0
Cc1cccc(CNc2ccnc(-c3ccc(N(C)C)cc3)n2)c1,-5.9
C=C1C(=O)O[C@@H]2[C@@H]1CC/C(C)=C\CC[C@@]1(C)O[C@H]21,7.0
S=C=Nc1cccc(NC(=S)NCCCCNC(=S)Nc2cccc(N=C=S)c2)c1,-5.9
COC(=O)Nc1ccc2[nH]cc(CCNC(C)=O)c2c1,-2.4
CC(=O)N1CC=CC1(C)C(=O)NCC1CC1 (stereo not drawn),-12.4
CC(C)C[C@@H](COCc1cccc(Cl)c1)N1CCN(C(=O)c2cccc(C(F)(F)F)c2)CCC1=O,-4.0
O=c1c(O)c(-c2ccc(O)c(O)c2)oc2c(OC3OC(CO)C(O)C(O)C3O)c(O)cc(O)c12 (stereo not drawn),7.8

# Bioassay records deposited in PubChem BioAssay by National Center for Advancing Translational Sciences (NCATS).
